Compound activity (PubChem BioAssay)
RecA intein inh: inhibitors of M. tuberculosis RecA intein splicing; AID 2221; inhibition, %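 (about 9 µM by stock and volumes)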; cell-free RecA intein splicing, fluorescence; 0.75% of 290,000 active; in the data active = inhibition above about 30%; inconclusive = no clear call, values can overlap the other calls;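 note: 0% = vehicle wells and 100% = reference inhibitor control wells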
Target sequence (P9WHJ3 whole entry, looked up): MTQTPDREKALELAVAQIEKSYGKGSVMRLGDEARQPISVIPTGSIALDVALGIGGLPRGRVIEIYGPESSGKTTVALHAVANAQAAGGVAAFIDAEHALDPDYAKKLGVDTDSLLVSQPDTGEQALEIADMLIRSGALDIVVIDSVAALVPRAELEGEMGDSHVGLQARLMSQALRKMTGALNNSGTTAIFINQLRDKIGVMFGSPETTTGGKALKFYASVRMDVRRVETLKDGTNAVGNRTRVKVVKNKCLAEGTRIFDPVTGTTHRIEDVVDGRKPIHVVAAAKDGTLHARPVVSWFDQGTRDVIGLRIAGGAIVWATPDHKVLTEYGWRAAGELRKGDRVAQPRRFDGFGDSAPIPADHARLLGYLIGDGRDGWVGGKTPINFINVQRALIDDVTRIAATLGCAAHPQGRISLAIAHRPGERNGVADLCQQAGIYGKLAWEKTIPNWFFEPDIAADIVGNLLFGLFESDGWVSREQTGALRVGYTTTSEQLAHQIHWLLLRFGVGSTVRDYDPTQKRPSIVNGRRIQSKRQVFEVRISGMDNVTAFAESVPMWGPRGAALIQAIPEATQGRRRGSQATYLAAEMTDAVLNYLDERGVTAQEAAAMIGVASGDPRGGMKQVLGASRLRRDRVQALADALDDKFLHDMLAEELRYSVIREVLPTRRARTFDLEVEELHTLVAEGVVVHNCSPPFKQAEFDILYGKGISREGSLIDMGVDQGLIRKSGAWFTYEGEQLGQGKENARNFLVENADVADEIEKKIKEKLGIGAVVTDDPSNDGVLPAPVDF
Mtb bLac sens: beta-lactam sensitization of Mtb H37Rv | M. tuberculosis H37Rv growth with meropenem, percent inhibition; hits of this screen are not shown here | inhibition, % at 25 µM | 0.27% of 330,000 active | AID 434955;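 active = about 74% or more and at least 40 points above the plate without the antibiotic, then above 30% in a dose series; inconclusive = first-round hits that could not be retested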;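 note: growth measured after seven days incubation then overnight dye step; 0% = bacteria only wells and 100% = bacteria with antibiotic; twin plates without the antibiotic show which effects depend on it; some results filed as inactive read as strong as hits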
YopH PTP inh: blocks Yersinia enterocolitica YopH tyrosine phosphatase; fluorescence Ex485/Em525; inhibition, %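 (about 10 µM by stock and volumes)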; 0.16% of 140,000 active;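 active = inhibition of 50% or more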;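 note: controls were vehicle for no effect and minimum signal wells for full effect; inactives centre near -20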
Arbovirus anti: arbovirus infection inhibition; inhibition, % at 10 µM; 0.37% of 200,000 active; arbovirus infection cell-based antiviral screen;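 active = inhibition from about 30%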;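 note: bluetongue infection of BSR cells; cell survival read as ATP light after 72 h; 0% = infected wells without compound and 100% = uninfected wells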
Mtb H37Rv: M. tuberculosis H37Rv growth inhibitors, H37Rv strain (AID 1626); 0.95% of 220,000 active; M. tuberculosis H37Rv growth inhibition; higher % means a stronger effect; inhibition, % at 10 µM, or IC50 in µM where a hit was titrated;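 active = confirmed in a dose series; inconclusive = inhibition above 80% but not taken into the dose series; inactive = below 80% or under 30% at every dose of the series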;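 note: bacteria incubated seven days before Alamar blue readout; 0% = bacteria only wells and 100% = bacteria with antibiotic wells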
Arbovirus anti repeat: further read-out of Arbovirus anti, marked with its call; inhibition, %; measured here: 10K subset replicate screen; many hits read low in the repeat;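 first of two repeat runs on a subset; 0% = infected and 100% = uninfected wells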
An asterisk follows results filed as active; ? = inconclusive; nt = no result given. The list is partial; count on the stated rates, not on these rows.

SMILES	RecA intein inh	Mtb bLac sens	YopH PTP inh	Arbovirus anti	Mtb H37Rv	others
CCOc1ccc(N2C(=O)c3cccnc3C2Nc2ccc(F)cc2)cc1 (stereo unspecified)	2.8	-11	-51	-13	7%
COc1cc(NC(=O)c2cc3c(C)nc4ccccc4c3o2)cc(OC)c1OC	1.8	0	-34	3	13%	Arbovirus anti repeat=-1
CCc1c(C(=O)Nc2cc(C)ccc2OC)[nH]c(C)c1C(C)=O	7.9	2	-3	-1	5%
O=C(Cc1ccccc1)N/N=C/c1cc(Br)cs1	4.0	4	nt	nt	nt
O=C(NCC(=O)N1CCN(c2cccc(Cl)c2)CC1)c1ccc(Br)o1	-2.3	-3	nt	nt	nt
CCOC(=O)c1nc(C)n(-c2cc(Cl)cc(Cl)c2)n1	-2.7	11	-1	6	-7%
O=C(Nc1ccc(-c2cscn2)cc1)C1CCCN(Cc2ccc(CO)o2)C1 (stereo unspecified)	0.2	0	nt	nt	nt
CCOC(=O)Cn1c(=O)c2c(nc3n2CC(C)CN3Cc2ccccc2)n(C)c1=O (stereo unspecified)	-2.8	0	nt	nt	nt
Cc1nnc(C)c2c(C)n(-c3ccccc3N)c(C)c12	-8.8	-4	nt	-6	-9%
NS(=O)(=O)c1ccc(Nc2nc(-c3ccc(O)cc3O)cs2)cc1	nt	-3	-11	3	-5%
O=C(CSc1nnc(CNc2ccc(F)cc2)n1Cc1ccco1)NC1CC1	1.3	-13	-35	2	2%
COc1ccc(CNC(=O)CN(Cc2ccc(OC)cc2)C(=O)CCC(=O)Nc2nccs2)cc1	-3.8	-2	nt	nt	nt
CCOC(=O)C1=C(N)N2C(=O)C(C)SC2=C(C(=O)OCC)C1c1ccc(O)cc1 (stereo unspecified)	-0.1	-3	nt	nt	70%
COc1cccc(-c2nc(CS(=O)CC(=O)NC(C)CCc3ccccc3)c(C)o2)c1 (stereo unspecified)	3.0	-7	nt	nt	nt
COC(=O)c1c(NC(=O)CCc2ccc(C)o2)sc(C)c1C	5.4	79	-20	-1	1%
Cc1ccc(OC(=O)COc2ccccc2C)cc1	13	-9	nt	nt	nt
CC(C)(C)NC(=O)c1ccc2c(c1)N(CC(=O)N1CCCCC1)C(=O)C(C)(C)O2	-3.8	3	nt	nt	nt
O=C(CCC1CCCN(c2ncccn2)C1)N1CCN(c2ccccn2)CC1 (stereo unspecified)	-1.9	-4	nt	nt	1%
CCOCC(=O)N1CCc2ccccc21	4.7	95	-25	-1	-3%
CCCC(=O)C1=C(O)C(C(=O)OC)C(C)(C)CC1=Nc1ccc(C)cc1 (stereo unspecified)	4.3	-3	nt	-9	-5%
C=CCN=C(NC#N)SC	-1.2	0	nt	nt	-5%
CC1CCCN(C(=O)Cc2cn(Cc3cccc(Cl)c3)c3ccccc23)C1 (stereo unspecified)	5.0	-2	-17	-38	5%
S=C(NC1CC1)N1CCN(C(=S)NC2CC2)CC1	-1.0	1	nt	nt	nt
COc1ccc(NC(=O)c2c(C)nn(Cc3ccccc3)c2Cl)cc1S(=O)(=O)N1CCOCC1	nt	-1	nt	0	1%
COC(=O)c1ccccc1NC(=O)C1CC(=O)N(c2ccc(OC)cc2)C1 (stereo unspecified)	1.0	-5	nt	-4	-3%

Brought forward from above: two entries; new compounds follow.
SMILES	RecA intein inh	Mtb bLac sens	YopH PTP inh	Arbovirus anti	Mtb H37Rv	others
COc1ccc(NC(=O)c2c(C)nn(Cc3ccccc3)c2Cl)cc1S(=O)(=O)N1CCOCC1	nt	-1	nt	0	1%
COC(=O)c1ccccc1NC(=O)C1CC(=O)N(c2ccc(OC)cc2)C1 (stereo unspecified)	1.0	-5	nt	-4	-3%
CCOCCCn1c(SCC(=O)N(C)C2CCS(=O)(=O)C2)nc2ccccc2c1=O (stereo unspecified)	-2.1	-6	nt	nt	nt
O=C(/C=C/c1ccc(Cl)cc1Cl)n1cccn1	1.0	28	2	6	-4%
CCOC(=O)CSc1c(-c2ccc(Cl)cc2)[nH]c2ccccc12	-1.0	3	-10	-6	11%
CN(C)Cc1ccc(O)c(CCc2ccccc2)n1	-0.7	2	-93	11	11%
COc1ccc(OC)c(-c2cc(-c3cccnc3)nc(N)c2C#N)c1	-4.2	1	nt	nt	3%
CCCNC(=O)N1CCC(C(=O)c2cccc(F)c2)CC1	-0.2	-5	-8	4	7%
CC(=O)Nc1ccc(NC(=O)CCc2ccc(C)o2)cc1	-1.0	-1	nt	nt	nt
c1ccc(CSc2ccc(-c3ccc4c(c3)OCO4)nn2)cc1	-2.6	-3	-6	-27	-5%
CCCN(CCC)CCNC(=O)CS(=O)Cc1nc(-c2ccc(C)cc2)oc1C (stereo unspecified)	4.6	-8	-17	1	-4%
CC(=O)c1cccc(Nc2nc(N3CCOCC3)nc(N3CCOCC3)n2)c1	-0.7	5	nt	nt	nt
Cc1cc(N2CCN(c3cccc(C)c3C)CC2)nc(-c2ccccc2)n1	6.0	20	-9	-2	6%
O=C(O)c1ccccc1C(=O)Nc1cccc([N+](=O)[O-])c1	-1.3	-7	nt	nt	-15%
Cc1cccc(NS(=O)(=O)c2nnc(NC(=O)c3cccc(C)c3)s2)c1	2.6	5	nt	nt	nt
CCC1(C)Cc2c(sc3nnn(CC(=O)Nc4ccc(C)cc4)c(=O)c23)CO1 (stereo unspecified)	nt	-7	-24	-6	4%
O=C(CN1C(=O)NC2(CCCCC2)C1=O)N1CCN(S(=O)(=O)c2ccccc2)CC1	-2.6	-5	nt	2	?
O=C1CCCN2N=C(SCC(=O)Nc3ccc(F)cc3F)SC2=N1	-1.7	23	nt	nt	nt
c1ccc(OCc2nn3c(Cn4cnc5ccccc54)nnc3s2)cc1	3.3	1	-12	5	-1%
COc1cc(/C=C(\NC(C)=O)C(=O)NC(C)(C)CC(C)(C)C)ccc1OC(C)=O	-1.8	-5	-17	-1	-7%
CCOC(=O)C1=C(c2ccccc2)NC(=O)NC1c1ccc(O)c(OCC)c1 (stereo unspecified)	-2.1	5	nt	19	-6%
COc1ccc(C(c2nnnn2Cc2ccccc2)N2CCN(C(=O)c3ccco3)CC2)cc1 (stereo unspecified)	15	-5	-50	14	-5%
CC(=O)Nc1ccc(Oc2ncccn2)c(Cl)c1	3.9	-7	49	10	-15%
Cc1cc(N/N=C/c2ccccc2Br)nc2ccccc12	-1.6	5	-24	7	17%
Cc1ccc(C(=O)CN(Cc2ccccc2)C2=NCCS2)cc1	0.6	11	-10	1	3%
O=C(COC(=O)c1ccco1)Nc1ccc2c(c1)OCO2	0.1	-3	-45	-3	0%
COc1ccc(N2C(=O)CCC2(C#N)c2ccc(OC)cc2)cc1 (stereo unspecified)	1.3	2	-3	14	-6%

Structures from the list above that contain bromine:
SMILES	RecA intein inh	Mtb bLac sens	YopH PTP inh	Arbovirus anti	Mtb H37Rv	others
O=C(Cc1ccccc1)N/N=C/c1cc(Br)cs1	4.0	4	nt	nt	nt
O=C(NCC(=O)N1CCN(c2cccc(Cl)c2)CC1)c1ccc(Br)o1	-2.3	-3	nt	nt	nt
Cc1cc(N/N=C/c2ccccc2Br)nc2ccccc12	-1.6	5	-24	7	17%

(list continues)
SMILES	RecA intein inh	Mtb bLac sens	YopH PTP inh	Arbovirus anti	Mtb H37Rv	others
CCOC(=O)N1CCC(NC(=O)Cn2ncc3c4ccccc4n(C)c3c2=O)CC1	0.8	nt	6	0	-5%
COc1ccc(/C=N/NC(=S)NC2CCS(=O)(=O)C2)cc1OC (stereo unspecified)	0.2	6	-37	-5	-7%
CCC1CCCCN1C(=O)Cn1c(=O)oc2ccccc21 (stereo unspecified)	-0.8	-8	-32	-2	7%	Arbovirus anti repeat=-2
O=C(CCN1C(=O)C2CCCCC2C1=O)Nc1cc(F)ccc1F (stereo unspecified)	-1.0	-16	nt	nt	nt
N#C/C(=C\c1ccc(OCC(N)=O)cc1)C(=O)NC1CC1	-0.7	-7	nt	nt	nt
Cc1ccc(CNC(=O)Cn2cc(C(F)(F)F)ccc2=O)cc1	4.2	4	-18	6	5%
O=c1[nH]c(C2C3CC4CC(C3)CC2C4)nc2ccccc12 (stereo unspecified)	2.7	0	-14	-12	1%
NC(=O)NOCc1ccccc1F	-3.2	-3	nt	5	-7%
Cn1ncc([N+](=O)[O-])c1C(=O)n1nnc2ccccc21	nt	nt	nt	7	-2%
Clc1ccc(OCc2nn[nH]n2)cc1	1.1	1	nt	nt	nt
Cc1ccc(-n2ncc3c(=O)n(CC(=O)N4CCN(c5ccccc5)CC4)cnc32)cc1C	-0.5	-2	nt	-7	0%
C/C(=N\N=C1\NC(=O)CC(C(=O)O)S1)c1cccs1 (stereo unspecified)	-1.7	2	-28	2	-9%
COc1ccc(C[C@H]2CN3C(=NC[C@@H]3Cc3ccccc3)N2C[C@H](C)NC(=O)CCC2CCCCC2)cc1	11	nt	nt	nt	?
CC(C)c1ccc(C(=O)N(c2ccccn2)C(C)c2ccco2)cc1 (stereo unspecified)	7.4	11	-11	-4	1%
Cc1cccc2c(N)c3c(nc12)N(C)CC3	-2.8	-3	nt	nt	nt
CCN(CC)CCCNC1CCS(=O)(=O)C1 (stereo unspecified)	-0.4	-4	1	8	-3%
FC(F)(F)c1nnc2ccc(Cl)nn12	-4.4	100	nt	-10	?
CCc1c(C)nc(N2CCN(Cc3ccc4c(c3)OCO4)CC2)[nH]c1=O	0.7	4	nt	nt	nt
Cc1ccc2cn[nH]c2c1N	6.8	-1	nt	-8	13%
CCN(CC)CCN1C(=O)C(=O)/C(=C(/O)c2ccc3c(c2)CC(C)O3)C1c1ccc(OC)cc1 (stereo unspecified)	0.1	-8	nt	nt	-7%
COc1cc(/C=N/Nc2nncn2N)ccc1OCc1c(C)no[n+]1[O-]	-4.4	-1	nt	nt	nt
CCn1c(CNc2ccc(F)cc2)nnc1SCC(=O)OC1CCCCC1	-0.9	6	-50	11	12µM*
COc1ccccc1/C=N\Nc1cn[nH]c(=O)c1Cl	1.7	-2	nt	4	-1%
CCCCOc1cccc(C(=O)N(Cc2cccs2)C2CCS(=O)(=O)C2)c1 (stereo unspecified)	2.2	-14	-45	18	1%
CCCN1C(=O)C(Cc2nc3ccccc3c(=O)n2-c2ccccc2)c2cc(C)ccc21 (stereo unspecified)	-2.2	8	-11	-23	-3%
The listing continues:
SMILES	RecA intein inh	Mtb bLac sens	YopH PTP inh	Arbovirus anti	Mtb H37Rv	others
CSc1cccc(NS(=O)(=O)c2ccc(-c3coc(C)n3)cc2)c1	0.3	-1	nt	nt	nt
COC(=O)Cc1[nH]nc2c1C(C1C=CCCC1)C(C#N)=C(N)O2 (stereo unspecified)	6.8	-6	-16	-6	-7%
C=CCNC(=S)Nc1cccc(N)c1	-1.5	1	nt	-1	3%
COC(=O)CCN(C(=O)c1cc(OC)c(OC)c(OC)c1)c1ccccn1	-0.6	2	-15	-5	5%
O=c1[nH]ncn1-c1ccc(Br)cc1	-0.9	-7	nt	8	2%
CC(C)c1onc(C(=O)NCc2cccs2)c1[N+](=O)[O-]	-2.7	-3	nt	9	9%
CC(=O)c1ccc(OCc2cc(C(=O)N(C)Cc3ncc(C)[nH]3)no2)cc1	-1.4	6	nt	nt	nt
CC(=O)NC1=NN(C(C)=O)C(C)(CS(=O)(=O)c2ccc3ccccc3c2)S1 (stereo unspecified)	1.4	-2	31	7	-3%
Cc1ccc(NC(=O)CSc2nc3ccccc3nc2N2CCCC2)cc1	-2.2	-7	nt	nt	nt
CCNC(=O)C(C)Sc1ccc(Cl)cc1 (stereo unspecified)	1.1	4	-37	0	9%
COc1cccc(NC(=O)CN(C)C(=O)c2ccc(-c3ccccc3Cl)o2)c1	3.7	-8	nt	nt	nt
COc1ccc(NC(=O)c2cccc(N3C(=O)C4C5C=CC(C5)C4C3=O)c2)c(OC)c1 (stereo unspecified)	12	6	nt	nt	nt
N=C1/C(=C\c2ccc(OC(=O)c3ccccc3)cc2)C(=O)N=C2SC(N3CCOCC3)=NN12	22	0	nt	nt	nt
O=C(CCN1C(=O)S/C(=C\c2cccs2)C1=O)NC1=NCCS1	2.1	-3	-28	-7	-3%
Cc1cccc(CCNC(=O)C2CCCN(S(=O)(=O)c3cccc4nsnc34)C2)c1 (stereo unspecified)	1.6	-4	-25	-12	0%
CCN(CC(=O)NCc1cccs1)C(=O)c1ccc(S(=O)(=O)Nc2cccc(C)c2C)cc1	-0.1	-19	nt	nt	nt
CCN1CCN(CCCNC(=O)c2csc3c2CCCCC3)CC1	-0.3	3	-32	-5	-2%
O=C(NC12CC3CC(CC(C3)C1)C2)OC1CN2CCC1CC2 (stereo unspecified)	0.0	0	nt	nt	-11%
COc1ccc(-c2nc(N3CCN(C)CC3)sc2-c2ccc(OC)cc2)cc1	1.2	50	nt	nt	nt
COc1ccc(/C=C2/CCCC(C(=O)C(F)(F)F)=C2O)cc1OC	-2.8	nt	nt	nt	-9%
